Screening data as filed in PubChem.
KCNQ2 enhance – KCNQ2 (rat) channel potentiation; O88943; hit rate 0.54% among 310,000; CHO-K1 KCNQ2, FluxOR thallium flux fluorescence; stronger effect = higher value; B-score at 10 µM;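 active = fluorescence ratio B-score at least 3 SD of library B-scores, with initial fluorescence B-score within 3 SD, cut at about 5.3 in these data; same plate scores as AID 2156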;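 also: B-score of peak minus minimum over baseline fluorescence ratio after K+ and Tl+ stimulus; positive B-score means potentiation of KCNQ2 with more thallium influx and brighter signal; only the inactives scoring about 0 or higher are listed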
Target sequence (O88943 whole entry, looked up): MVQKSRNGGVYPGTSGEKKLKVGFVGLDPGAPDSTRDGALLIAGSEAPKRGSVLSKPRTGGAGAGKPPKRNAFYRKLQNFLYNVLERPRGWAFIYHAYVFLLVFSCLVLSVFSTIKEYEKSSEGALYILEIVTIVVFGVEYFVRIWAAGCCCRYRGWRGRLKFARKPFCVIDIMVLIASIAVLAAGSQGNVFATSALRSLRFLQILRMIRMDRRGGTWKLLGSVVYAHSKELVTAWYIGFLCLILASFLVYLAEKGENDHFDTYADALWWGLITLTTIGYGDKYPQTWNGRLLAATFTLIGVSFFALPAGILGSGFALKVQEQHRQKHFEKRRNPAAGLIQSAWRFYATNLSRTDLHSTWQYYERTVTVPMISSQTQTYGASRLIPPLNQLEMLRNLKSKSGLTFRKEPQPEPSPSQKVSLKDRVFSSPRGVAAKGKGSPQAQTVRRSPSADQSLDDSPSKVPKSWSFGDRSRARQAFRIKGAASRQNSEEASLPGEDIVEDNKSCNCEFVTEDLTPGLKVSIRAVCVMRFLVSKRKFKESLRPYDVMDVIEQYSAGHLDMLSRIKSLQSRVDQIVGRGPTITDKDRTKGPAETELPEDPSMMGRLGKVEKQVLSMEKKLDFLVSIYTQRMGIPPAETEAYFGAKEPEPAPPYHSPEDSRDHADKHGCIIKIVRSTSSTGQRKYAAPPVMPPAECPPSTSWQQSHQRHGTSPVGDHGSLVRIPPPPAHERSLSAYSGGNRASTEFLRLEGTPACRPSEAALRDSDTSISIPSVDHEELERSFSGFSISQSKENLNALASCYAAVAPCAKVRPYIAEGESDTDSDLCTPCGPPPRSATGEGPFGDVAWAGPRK
KCNQ2 enhance baseline – further read-out of KCNQ2 enhance, marked with its call; B-score; compound at 10 µM; measured here: initial fluorescence intensity artifact check;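 brightness before thallium and not channel activity; 0 = typical well and far values either way flag optical interference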
An asterisk follows results filed as active. The list is partial (hit frequency here may not be typical).

SMILES | KCNQ2 enhance baseline | KCNQ2 enhance
Cc1ccc(NC(=S)N(CCN(C)C)C(C)c2cccnc2)c(C)c1 (stereo unspecified) | 0.81 | 0.08
CC(O)[C@H]1CN=C(N)N1CC1CCCCC1 (stereo partly specified) | 0.12 | 0.62
O=C(O)c1cc(-c2ccc(Cl)cc2)n[nH]1 | 1.1 | 0.56
O=C(CNC(=O)c1ccccc1)NCCO | -0.52 | 0.32
O=[N+]([O-])c1cccc(-c2ccc(/C=N/n3c(-c4ccccc4)n[nH]c3=S)o2)c1 | -0.58 | 0.04
CCOC(=O)c1c(-c2ccccc2)csc1NC(=O)/C(C#N)=C/c1ccc(OC)c(OC)c1 | 0.36 | 1.3
CC(=O)c1ccc(-n2cc(C#N)c(=O)[nH]c2=O)cc1 | -0.01 | 0.03
Cc1ccc(-c2n[nH]c(=S)nc2-c2ccc(C)cc2)cc1 | -0.65 | 3.1
COc1cccc(C2C(C(=O)OC(C)C)=C(C)Nc3ncnn32)c1 (stereo unspecified) | -1.4 | 0.15
CC1=CC(=C(C#N)c2nc3ccccc3s2)C=C(C)N1CC1CCCO1 (stereo unspecified) | 1.2 | 0.35

The list goes on; it opens with the 2 that closed the last part.
SMILES | KCNQ2 enhance baseline | KCNQ2 enhance
COc1cccc(C2C(C(=O)OC(C)C)=C(C)Nc3ncnn32)c1 (stereo unspecified) | -1.4 | 0.15
CC1=CC(=C(C#N)c2nc3ccccc3s2)C=C(C)N1CC1CCCO1 (stereo unspecified) | 1.2 | 0.35
CCCCC(C(=O)O)C(C)CC(=O)Nc1ccn(-c2ccccc2)n1 (stereo unspecified) | -0.31 | 2.1
Cc1ccccc1C(=O)NC(=S)Nc1ccccc1C(=O)O | -0.04 | 0.65
Cc1nn(CCCC(=O)N2CCN(c3ccc(F)cc3)CC2)c(C)c1[N+](=O)[O-] | 0.26 | 0.55
Cn1c(CN2CCOCC2)nnc1SCC(=O)Nc1cc(Cl)ccc1Cl | 0.1 | 0.1
O=C(CS(=O)c1ccc(C(F)(F)F)cc1[N+](=O)[O-])Oc1ccccc1 (stereo unspecified) | -0.49 | 0.5
NC(=O)CC(NC(=O)Cc1cccc2ccccc12)c1ccc(NC2CCCCCCC2)c([N+](=O)[O-])c1 (stereo unspecified) | -1.6 | 1.6
COc1ccc(NC(=O)C2CCCC2)cc1 | 0.07 | 0.77
COc1ccc(C(=O)/C=C/c2cccs2)c(OC(=O)N2CCOCC2)c1 | -1.1 | 0.23
Cc1ccc(NC(=O)C2CCCN(c3ncnc4c3nc3n4CCCCC3)C2)nc1 (stereo unspecified) | -0.59 | 0.13
Oc1ccc(-c2nnc(SCc3ccccc3)o2)cc1 | -0.47 | 1.7

Complete entries, quoted from the list. Values in the order: KCNQ2 enhance baseline	KCNQ2 enhance
`CCCCC(C(=O)O)C(C)CC(=O)Nc1ccn(-c2ccccc2)n1` (stereo unspecified) is listed as -0.31	2.1
`NC(=O)CC(NC(=O)Cc1cccc2ccccc12)c1ccc(NC2CCCCCCC2)c([N+](=O)[O-])c1` (stereo unspecified) is listed as -1.6	1.6

Next part
SMILES | KCNQ2 enhance baseline | KCNQ2 enhance
CCN(CC(=O)Nc1cccc(S(=O)(=O)N2CCOCC2)c1)Cc1ccccc1 | -0.71 | 0.61
O=C1CC(N2CCOCC2)C(=O)N1c1cccc(Cl)c1 (stereo unspecified) | -2.3 | 0.6
COc1ccc(N2CCN(C(CNC(=O)C(=O)NCCCO)c3ccco3)CC2)cc1 (stereo unspecified) | 1.1 | 0.27
CN1CCc2ccccc2C1C1CCNCC1 (stereo unspecified) | 0.47 | 0.48
CCOc1ccc(S(=O)(=O)N2CCOCC2)cc1NC(=O)Cc1c(F)cccc1Cl | -0.03 | 0.92
COc1ccc(OC)c(NC=C2C(=O)OC(C)(C)OC2=O)c1 | -0.68 | 1.9
CCN(C(=O)COC(=O)c1cccnc1Nc1ccccc1F)C1CCS(=O)(=O)C1 (stereo unspecified) | -0.03 | 0.51
CCOc1ccc(N(C(C)C(=O)N2CCCCCC2)S(C)(=O)=O)cc1 (stereo unspecified) | -0.13 | 1.1
COc1cc(C2C3=C(CCCC3=O)Nc3c2c(C)nn3-c2cccc(C)c2)cc(OC)c1O (stereo unspecified) | 1.4 | 0.18
CCOc1ccc(C(=O)NCC(c2cccs2)N(C)C)cc1OCC (stereo unspecified) | -0.49 | 1.1
O=C(COC(=O)CN1C(=O)NC2(CCCC2)C1=O)Nc1ccc(C(F)(F)F)cc1[N+](=O)[O-] | 0.05 | 1
NC(=O)CSc1nnnn1-c1cccc(Cl)c1 | -1.6 | 0.02
COc1ccc(S(=O)(=O)N2CCCC2C(=O)Nc2nccs2)cc1 (stereo unspecified) | -0.51 | 0.99
CCCCNC(=O)CSc1nnc(-c2c[nH]c3ccccc23)n1CC1CCCO1 (stereo unspecified) | -1.5 | 0.48
COc1cccc(-n2c(C)nc3c(cnn3-c3ccc(Cl)cc3)c2=O)c1 | 1.5 | 1.2
CCN(CC)S(=O)(=O)c1ccc2oc(C(=O)N3CCCCCC3)c(C)c2c1 | -1.4 | 1.7
O=C(CN1CCN(Cc2ccccc2)CC1)Nc1nc2ccccc2s1 | -1.3 | 1.5
CCOc1ccccc1Nc1nnc(SCC(=O)NC(Cc2c[nH]c3ccccc23)C(=O)O)s1 (stereo unspecified) | -0.54 | 0.39
COC(=O)C1CCCCN1C(=O)c1cc(COc2cccc3cnccc23)on1 (stereo unspecified) | -1.9 | 2.9
COc1ccc(-c2nc3ccccn3c2/N=C/c2ccc(OC)c(OC)c2)cc1O | -0.26 | 0.37
CCN(CC)c1ccc(C(=O)NNC(=O)CCc2nc3ccccc3c(=O)[nH]2)cc1 | -1.7 | 0.23
COc1ccc(CN2CCN(CCCc3ccccc3)CC2)c(OC)c1 | 0.2 | 0.61
Cc1ccc(C(=O)COC(=O)CN2C(=O)C3C4CCC(C4)C3C2=O)cc1C (stereo unspecified) | 1.2 | 0.73
CN(C)CCCCOc1ccccc1-c1ccccc1 | -1.2 | 0.31
O=C(Nc1ccc([N+](=O)[O-])cc1)c1ccccc1 | -0.92 | 0.61
Cc1ccc(S(=O)(=O)N2CCN(C(=O)CC(C)n3cncn3)CC2)cc1 (stereo unspecified) | 1.4 | 1.4
COc1ccccc1NS(=O)(=O)c1ccc2oc(=S)[nH]c2c1 | -1.6 | 1
Cc1cc(=O)oc2c(N)c(O)ccc12 | 1.3 | 0.42
O=C(NCc1ccccc1)c1ccc(S(=O)(=O)N2CCCC2)cc1 | -0.79 | 0.74
COC(=O)Cn1c(C)nc2ccccc21 | 1 | 0.92
CC(C)(C)C(=O)NC(C(N)=O)=C(Cl)Cl | -1.1 | 2
O=C(N/N=C/c1ccccn1)c1ccc(Br)o1 | 0.16 | 1.1
CCc1ccc(NC(=O)C2CCCN(S(=O)(=O)c3cnc[nH]3)C2)cc1 (stereo unspecified) | -0.23 | 1.6
O=C(CN1CCN(c2ccccc2)CC1)NCc1ccc(F)cc1 | -0.5 | 1.2
CC(C)(C)NC(=O)C1CCCN(S(=O)(=O)c2ccc(-n3cnnn3)cc2)C1 (stereo unspecified) | 0.27 | 0.62
Cn1c(=O)c2c(SCC(=O)N3CCCc4ccccc43)nc(C3CC3)nc2n(C)c1=O | -0.82 | 2.2
CC(=NCc1ccccc1)C1=C(O)COC1=O | 1.2 | 0.83
N#Cc1c(NCCCO)nc(-c2ccccc2)c2c1CCCC2 | -4 | 1.1
CC1CC2(CCCCC2)N2C(=O)C(=O)c3cccc1c32 (stereo unspecified) | 0.08 | 1.4
Cc1nnc(NC(=O)CSc2nc3c(c(=O)n2CCc2ccccc2)SC(C)C3)s1 (stereo unspecified) | 0.95 | 0.54
Cc1cccn2c(=O)c(/C=C(\C#N)S(=O)(=O)c3ccccc3)c(N3CCN(c4ccccc4)CC3)nc12 | -0.88 | 2.5
N#Cc1cnn2c(-c3ccc(Cl)cc3Cl)ccnc12 | 0.19 | 0.04
Cc1ccc(Cn2ccc(NC(=O)c3cc(-c4cccs4)on3)n2)cc1 | -0.38 | 0.88
O=c1c2cc(N3CCOCC3)ccc2[nH]c(=S)n1CCN1CCCC1 | -0.21 | 0.31
C#CCn1c(=NC(=O)c2cc(Cl)sc2Cl)sc2cc(S(N)(=O)=O)ccc21 | -0.01 | 0.73
CC(C)c1ccc(/C=C2\SC(N3CCCC3)=NC2=O)cc1 | -1.2 | 2.7
COc1ccc(-c2nc3ccccc3n2OC(C)C(=O)O)cc1 (stereo unspecified) | -0.89 | 0.67
CCOc1ccc(C(=O)Nc2c(C(N)=O)oc3ccccc23)cc1 | 0.97 | 0.88
CC/C(Cc1ccccc1)=N/NC(=O)CCn1nnc2ccccc21 | 1.1 | 0.82
O=C1NC(c2ccccc2)=C(c2nc3ccccc3s2)C(c2ccc(F)cc2)N1 (stereo unspecified) | 1.5* | 8.7*

Additional records:
SMILES | KCNQ2 enhance baseline | KCNQ2 enhance
COc1ccccc1NS(=O)(=O)c1cccc(C(=O)NCC(c2ccco2)N(C)C)c1 (stereo unspecified) | 0.58 | 0.04
CC1CCCC(C(=O)OCc2ccccc2)N1 (stereo unspecified) | -1.4 | 2.1
O=C(c1cnc2n(c1=O)CCS2)N1CCN(c2ccccc2F)CC1 | -0.02 | 0.48
O=C(NCCS(=O)(=O)N1CCN(c2ccccc2)CC1)c1cccs1 | 0.4 | 0.73
COC(=O)c1cccc(NC(=O)CC2C(=O)NCCN2C(=O)Nc2cc(C)cc(C)c2)c1 (stereo unspecified) | -0.06 | 0.21
COC(=O)CCCCCCCCCCN1CCCCC1 | 0.1 | 1
CC1CC(C)CN(C(=O)COC(=O)c2nn(C)c(=O)c3ccccc23)C1 (stereo unspecified) | -2.6 | 1.4
Cc1sc2nc(SCC(=O)Nc3c(C)n(C)n(-c4ccccc4)c3=O)n(C)c(=O)c2c1C | -0.52 | 2
C=CCN1CCc2c(cc(O)c(O)c2Cl)C(c2ccccc2)C1 (stereo unspecified) | 1.3 | 0.07
O=C(O)CCC(=O)Nc1ccc(Br)cc1C(=O)c1ccccc1Cl | 0.08 | 0.88

An excerpt of these results, field by field.
smiles: O=C(NCCS(=O)(=O)N1CCN(c2ccccc2)CC1)c1cccs1
- KCNQ2 enhance baseline: 0.4
- KCNQ2 enhance: 0.73

smiles: COC(=O)CCCCCCCCCCN1CCCCC1
- KCNQ2 enhance baseline: 0.1
- KCNQ2 enhance: 1

(listing goes on)
SMILES | KCNQ2 enhance baseline | KCNQ2 enhance
C/C=C(\C)C(=O)Nc1cccc(C2=NOC3(C2)C[C@@H](C(N)=O)N(C(=O)/C(C)=C/C)C3)c1 (stereo partly specified) | -1.9 | 1.4
NC(N)=NCC(O)CN(c1ccccc1)c1ccccc1 (stereo unspecified) | 0.73 | 0.5
CCCC(=O)NC(C)C(c1cccs1)N1CCN(c2ccccc2)CC1 (stereo unspecified) | 1.2 | 0.37
O=C(Cc1csc(N2CCOCC2)n1)N/N=C/c1ccc(F)cc1 | -2.1 | 0.29
CCCS(=O)(=O)N1CCCC(C(=O)NCCCN2CCN(c3ccc(F)cc3)CC2)C1 (stereo unspecified) | -1.1 | 0.24
CCOC(=O)COc1ccc(S(=O)(=O)NCc2ccncc2)cc1 | 0.07 | 0.74
CCn1ncc(Br)c1C(=O)Nc1ccc(F)c([N+](=O)[O-])c1 | -0.63 | 0.45
Cc1cccc(NCN2C(=O)c3ccccc3C2=O)c1 | 0.01 | 0.8
CC1CCCC(C)N1C(=O)COC(=O)c1nn(C)c(=O)c2ccccc12 (stereo unspecified) | 0.45 | 1
O=C(N/N=C/c1ccccc1O)c1cccc(C(F)(F)F)c1 | 0.64 | 0.13

A second format for part of the listing above:
Second line of a record: KCNQ2 enhance baseline, KCNQ2 enhance
Cc1cccc(NCN2C(=O)c3ccccc3C2=O)c1
  0.01, 0.8
CCn1ncc(Br)c1C(=O)Nc1ccc(F)c([N+](=O)[O-])c1
  -0.63, 0.45

Next section
SMILES | KCNQ2 enhance baseline | KCNQ2 enhance
COc1ccccc1C(=O)N1CCN=C1SCc1cccnc1 | 0.91 | 0.05
O=C(CCS(=O)(=O)Cc1ccccc1)Nc1ccc2c(c1)OCCO2 | 2.4 | 0.42
C/C(=C\c1ccco1)CN1CCN(Cc2ccc(C)o2)C(CCO)C1 (stereo unspecified) | 0.23 | 0.32
Cc1cccc(NC(=S)NN2CCOCC2)c1C | 0.32 | 0.36
C=CC(C)(C)c1[nH]cnc1/C=C1\NC(=O)C(C(C)C)NC1=O (stereo unspecified) | 0.28 | 1.6
COc1ccc(N2CC(C(=O)N(CC(C)C)c3c(N)n(Cc4ccccc4)c(=O)[nH]c3=O)CC2=O)c(OC)c1 (stereo unspecified) | -0.24 | 2.2
COc1ccc2c(c1)OC(O)(C(F)F)CC2=O (stereo unspecified) | 0.13 | 1.8
O=c1[nH]c(C2CCN(S(=O)(=O)c3ccc(S(=O)(=O)NC4CC4)cc3)CC2)nc2c1nnn2Cc1ccc(F)cc1 | 1.7 | 0.27
Cc1cc2occ(CC(=O)N(CCC(C)C)c3c(N)n(Cc4ccccc4)c(=O)[nH]c3=O)c2cc1C | 0 | 2.2
CSc1sc(C)cc1C1C(C#N)=C(N)N(c2cccnc2)C2=C1C(=O)CCC2 (stereo unspecified) | -1.2 | 0.14
Cc1ccc(S(=O)(=O)N2CCN(Cc3nc4ccccc4[nH]3)CC2)cc1C | -0.06 | 0.6
CCCN1C2CCCC1CC(NC(=S)Nc1cc(C)ccc1C)C2 (stereo unspecified) | -0.89 | 2.1
CC(C)Cn1c(N)c(C(=O)COC(=O)c2cc(C(F)(F)F)nc3c(C(F)(F)F)cccc23)c(=O)n(C)c1=O | -0.74 | 1.2
O=S(=O)(NCc1cccnc1)c1ccc(Cl)s1 | 1.3 | 1.3
N#Cc1cc(Nc2c(N)nc[nH]c2=O)c([N+](=O)[O-])cc1C#N | -1.5 | 1.1
COc1ccc2cc3cc(C(=O)Nc4cc(OC)c(OC)c(OC)c4)oc3nc2c1 | -0.34 | 0.61
CCCCN(C)C(=O)c1nc2ccccn2c1CN1CCN(C/C=C/c2ccccc2)CC1 | -1 | 0.6
